Compound activity (PubChem BioAssay)
Ran FRET: inhibitors of Ran–importin-beta complex formation, primary screen, biochemical, CFP-Ran/YFP-importin-beta FRET, RCC1, cell-free (AID 434961) | Regulator of chromosome condensation (Homo sapiens) + GTP-binding nuclear protein Ran … | CFP-Ran/YFP-importin-beta FRET, cell-free; hits give high values | actives 0.2% (n = 7,700) | inhibition, %;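 active = more than half of the replicate wells above 15% inhibition; inconclusive = exactly half above it; inactive = fewer than half above it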;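 also: 0% = DMSO wells and 100% inhibition = RanGDP control wells on each plate; stock of unstated strength diluted about 400-fold; mean of two wells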
An asterisk follows results filed as active; ? = inconclusive. The list is partial; rates above refer to the full screens.

no.	smiles	Ran FRET
1	COc1ccc(NC(=O)Nc2ccc3c(c2)CC(=O)N([C@@H](C)CO)C[C@@H](C)[C@@H](CN(C)C)O3)cc1	-13.2
2	C[C@@H]1CN([C@@H](C)CO)C(=O)c2cc(NC(=O)Nc3ccccc3)ccc2O[C@@H](C)CCCCO[C@H]1CN(C)C(=O)Nc1ccccc1	6.4
3	C[C@@H]1CCCCO[C@H](CN(C)C(=O)c2ccncc2)[C@@H](C)CN([C@H](C)CO)C(=O)c2cc(NS(C)(=O)=O)ccc2O1	?
4	C[C@@H]1CN([C@@H](C)CO)C(=O)c2cccc(NC(=O)C3CCOCC3)c2O[C@@H]1CN(C)CC1CC1	2.2
5	C[C@H](CO)N1C[C@H](C)[C@H](CN(C)C)Oc2ccc(NC(=O)Cn3cnnn3)cc2CC1=O	?
6	C[C@H](CO)N1C[C@H](C)[C@H](CN(C)Cc2ccccc2)Oc2ccc(NS(=O)(=O)c3cn(C)cn3)cc2CC1=O	0.7
7	Cc1noc(C)c1S(=O)(=O)Nc1ccc2c(c1)C(=O)N([C@@H](C)CO)C[C@H](C)[C@@H](CN(C)C)OCCCC[C@@H](C)O2	2.0
8	C[C@@H]1CN([C@H](C)CO)C(=O)CCCn2cc(nn2)CO[C@H]1CN(C)Cc1ccc2c(c1)OCO2	-2.6
9	Cc1noc(C)c1S(=O)(=O)Nc1ccc2c(c1)C(=O)N([C@@H](C)CO)C[C@@H](C)[C@H](CN(C)C(=O)Nc1ccc(F)cc1)O2	-1.3
10	CNC[C@@H]1Oc2ccc(NC(=O)Nc3ccc4c(c3)OCO4)cc2C(=O)N([C@@H](C)CO)C[C@H]1C	3.2
11	C[C@@H]1CN([C@@H](C)CO)C(=O)CCCn2cc(nn2)CO[C@H]1CN(C)C(=O)c1ccccc1	-2.9
12	C[C@@H]1CN([C@@H](C)CO)C(=O)c2cccc(NS(=O)(=O)c3cn(C)cn3)c2O[C@@H]1CN(C)C(=O)Nc1cccc2ccccc12	-2.3
13	C[C@@H]1CN([C@@H](C)CO)C(=O)Cc2cc(NC(=O)Nc3ccccc3)ccc2O[C@H]1CN(C)CC1CC1	-3.0
14	CNC[C@@H]1OCCCC[C@H](C)Oc2ccc(NC(=O)Cc3ccccc3)cc2C(=O)N([C@@H](C)CO)C[C@@H]1C	7.9
15	CC(C)NC(=O)Nc1ccc2c(c1)C(=O)N([C@H](C)CO)C[C@H](C)[C@H](CN(C)S(=O)(=O)c1ccccc1)OCCCC[C@@H](C)O2	5.2
16	C[C@H]1CN([C@@H](C)CO)C(=O)c2cc(NC(=O)NC3CCCCC3)ccc2O[C@H]1CN(C)S(=O)(=O)c1cccs1	5.1
17	C[C@@H]1CN([C@@H](C)CO)C(=O)c2cccc(NC(=O)Nc3ccccc3)c2O[C@@H]1CN(C)C(=O)NC1CCCCC1	-12.4
18	C[C@H](CO)N1C[C@H](C)[C@H](CN(C)S(=O)(=O)c2ccccc2)Oc2ncc(C#CCN(C)C)cc2C1=O	2.9
19	C[C@H](CO)N1C[C@H](C)[C@@H](CN(C)Cc2ccc(C(F)(F)F)cc2)Oc2c(NS(=O)(=O)c3cccs3)cccc2C1=O	-3.7
20	C[C@H]1CN([C@@H](C)CO)C(=O)Cc2cc(NS(=O)(=O)c3ccc(Cl)cc3)ccc2O[C@@H]1CN(C)CC1CCCCC1	2.4
21	Cc1noc(C)c1S(=O)(=O)Nc1ccc2c(c1)C(=O)N([C@@H](C)CO)C[C@@H](C)[C@H](CN(C)C)OCCCC[C@H](C)O2	-2.9
22	C[C@@H]1CN([C@H](C)CO)C(=O)Cc2cc(NC(=O)Nc3ccc(C(F)(F)F)cc3)ccc2O[C@H]1CN(C)CC1CC1	4.8
23	Cc1noc(C)c1NC(=O)N(C)C[C@H]1Oc2ccc(NS(=O)(=O)c3cccs3)cc2C(=O)N([C@@H](C)CO)C[C@H]1C	-1.0
24	C[C@@H]1CN([C@@H](C)CO)C(=O)c2cccc(NC(=O)Nc3ccc(F)cc3)c2O[C@@H]1CN(C)Cc1ccc(C(F)(F)F)cc1	3.6
25	C[C@H](CO)N1C[C@H](C)[C@@H](CN(C)C(=O)Nc2ccc(F)cc2)Oc2ccc(NC(=O)Nc3ccc4c(c3)OCO4)cc2C1=O	1.4
26	COc1ccc(S(=O)(=O)N(C)C[C@H]2Oc3ccc(NC(=O)Cc4ccccc4)cc3C(=O)N([C@@H](C)CO)C[C@H]2C)cc1	-2.9
27	CC(C)NC(=O)N(C)C[C@@H]1OCCCC[C@H](C)Oc2ccc(N(C)C)cc2C(=O)N([C@H](C)CO)C[C@@H]1C	5.6
28	C[C@H](CO)N1C[C@H](C)[C@H](CN(C)C(=O)Nc2cccc3ccccc23)Oc2c(NS(C)(=O)=O)cccc2C1=O	-2.2
29	C[C@H](CO)N1C[C@H](C)[C@H](CN(C)C)Oc2ccc(NS(=O)(=O)c3cn(C)cn3)cc2C1=O	5.4
30	Cc1noc(C)c1NC(=O)Nc1ccc2c(c1)C(=O)N([C@H](C)CO)C[C@H](C)[C@H](CN(C)S(=O)(=O)c1cn(C)cn1)OCCCC[C@H](C)O2	1.7
31	C[C@@H]1CN([C@H](C)CO)C(=O)c2cccc(NC(=O)C3CCOCC3)c2O[C@H]1CN(C)Cc1ccc2c(c1)OCO2	4.1
32	C[C@@H]1CN([C@@H](C)CO)C(=O)c2cc(NC(=O)CCCN(C)C)ccc2O[C@@H](C)CCCCO[C@@H]1CN(C)Cc1ccncc1	0.4
33	C[C@@H]1CN([C@@H](C)CO)C(=O)c2cc(NC(=O)c3ccccc3)ccc2O[C@@H](C)CCCCO[C@H]1CN(C)S(=O)(=O)c1cn(C)cn1	3.2
34	C[C@@H]1CN([C@H](C)CO)C(=O)c2cc(NC(=O)Nc3ccc4c(c3)OCO4)ccc2O[C@@H]1CN(C)C(=O)Nc1ccc2c(c1)OCO2	-6.3
35	Cc1noc(C)c1S(=O)(=O)Nc1cccc2c1O[C@H](CN(C)Cc1ccc(C(=O)O)cc1)[C@@H](C)CN([C@H](C)CO)C2=O	-0.8
36	C[C@@H]1CN([C@H](C)CO)C(=O)c2cc(NC(=O)CCC(F)(F)F)ccc2O[C@@H](C)CCCCO[C@H]1CN(C)C(=O)c1ccncc1	-5.0
37	C[C@H]1CCCCO[C@@H](CN(C)C(=O)Cc2ccccc2)[C@@H](C)CN([C@@H](C)CO)C(=O)c2cc(NC(=O)c3ccncc3)ccc2O1	-0.3
38	C[C@@H]1CCCCO[C@H](CN(C)Cc2ccncc2)[C@H](C)CN([C@@H](C)CO)C(=O)c2cc(NC(=O)c3ccncc3)ccc2O1	-3.1
39	COc1ccc(NC(=O)Nc2cccc3c2O[C@@H](CN(C)C(=O)Nc2ccccc2)[C@@H](C)CN([C@H](C)CO)C3=O)cc1	4.1
40	C[C@@H]1CCCCO[C@H](CN(C)C(=O)CCC(F)(F)F)[C@H](C)CN([C@@H](C)CO)C(=O)c2cc(NS(=O)(=O)c3ccccc3)ccc2O1	1.6
41	C[C@H](CO)N1C[C@H](C)[C@H](CN(C)C(=O)Nc2ccc(F)cc2)Oc2ccc(N(C)C)cc2C1=O	0.6
42	Cc1noc(C)c1S(=O)(=O)N(C)C[C@@H]1OCCCC[C@H](C)Oc2ccc(NS(C)(=O)=O)cc2C(=O)N([C@H](C)CO)C[C@@H]1C	-0.2
43	Cc1noc(C)c1NC(=O)Nc1cccc2c1O[C@H](CN(C)Cc1ccc(Cl)c(Cl)c1)[C@@H](C)CN([C@H](C)CO)C2=O	6.1
44	C[C@H]1CN([C@@H](C)CO)C(=O)c2cc(NC(=O)Nc3ccc(F)cc3)ccc2O[C@@H]1CN(C)C	-2.2
45	C[C@H]1CN([C@@H](C)CO)C(=O)c2cccc(NS(=O)(=O)c3ccccc3)c2O[C@H]1CN(C)C	6.4
46	Cc1ccc(OC(=O)N(C)C[C@H]2OCc3cn(nn3)CCCC(=O)N([C@@H](C)CO)C[C@@H]2C)cc1	-4.5
47	CNC[C@H]1OCCCC[C@H](C)Oc2ccc(NS(=O)(=O)c3c(C)noc3C)cc2C(=O)N([C@@H](C)CO)C[C@@H]1C	-2.8
48	C[C@@H]1CCCCO[C@H](CN(C)C(=O)c2ccccc2)[C@@H](C)CN([C@H](C)CO)C(=O)c2cc(NS(C)(=O)=O)ccc2O1	-3.8
49	Cc1noc(C)c1NC(=O)N(C)C[C@@H]1Oc2ccc(NC(=O)Cc3ccccc3)cc2C(=O)N([C@H](C)CO)C[C@H]1C	1.3
50	COc1ccc(S(=O)(=O)N(C)C[C@H]2Oc3c(NC(=O)C4CC4)cccc3C(=O)N([C@@H](C)CO)C[C@H]2C)cc1	-5.1
51	CNC[C@H]1Oc2ccc(NC(=O)CCN3CCOCC3)cc2CC(=O)N([C@H](C)CO)C[C@@H]1C	?
52	C[C@@H]1CN([C@@H](C)CO)C(=O)Cc2cc(NS(=O)(=O)c3ccccc3)ccc2O[C@H]1CN(C)C(=O)NC1CCCCC1	-2.2
53	C[C@H]1CN([C@@H](C)CO)C(=O)Cc2cc(NS(=O)(=O)c3cn(C)cn3)ccc2O[C@H]1CN(C)CC1CC1	-3.9
54	C[C@@H]1CCCCO[C@H](CN(C)S(=O)(=O)c2cn(C)cn2)[C@@H](C)CN([C@H](C)CO)C(=O)c2cc(NS(=O)(=O)c3cn(C)cn3)ccc2O1	-1.7
55	C[C@H](CO)N1C[C@H](C)[C@@H](CN(C)Cc2ccc(C(F)(F)F)cc2)Oc2ccc(NC(=O)C3CC3)cc2CC1=O	-0.2
56	CNC[C@@H]1Oc2ccc(NS(=O)(=O)c3cn(C)cn3)cc2CC(=O)N([C@H](C)CO)C[C@H]1C	-1.9
57	C[C@H]1CN([C@@H](C)CO)C(=O)c2cccc(NC(=O)Nc3ccc(C(F)(F)F)cc3)c2O[C@@H]1CN(C)S(=O)(=O)c1cn(C)cn1	1.4
58	C[C@@H]1CCCCO[C@@H](CN(C)Cc2ccncc2)[C@@H](C)CN([C@@H](C)CO)C(=O)c2cc(NC(=O)Nc3cccc4ccccc34)ccc2O1	-1.7
59	C[C@@H]1CN([C@H](C)CO)C(=O)c2cc(NC(=O)Nc3ccc4c(c3)OCO4)ccc2O[C@@H]1CN(C)C(=O)NC1CCCCC1	-0.1
60	CNC[C@@H]1Oc2ccc(NC(=O)Cn3cnnn3)cc2CC(=O)N([C@@H](C)CO)C[C@@H]1C	-2.0

(list continues)
no.	smiles	Ran FRET
61	CC(C)NC(=O)N(C)C[C@@H]1Oc2ccc(NC(=O)CCC(F)(F)F)cc2C(=O)N([C@H](C)CO)C[C@@H]1C	4.8
62	CNC[C@@H]1OCCCC[C@H](C)Oc2ccc(NC(=O)c3ccncc3)cc2C(=O)N([C@H](C)CO)C[C@@H]1C	-1.7
63	CNC[C@H]1Oc2c(NC(=O)Nc3cccc4ccccc34)cccc2C(=O)N([C@H](C)CO)C[C@H]1C	0.4
64	CCCN(C)C[C@H]1OCCCC[C@H](C)Oc2ccc(NS(=O)(=O)c3ccc(OC)cc3)cc2C(=O)N([C@H](C)CO)C[C@H]1C	4.3
65	C[C@H](CO)N1C[C@H](C)[C@@H](CN(C)S(=O)(=O)c2ccccc2)Oc2ccc(NC(=O)Cn3cnnn3)cc2CC1=O	-2.3
66	C[C@H]1CN([C@@H](C)CO)C(=O)Cc2cc(NC(=O)Cc3ccccc3)ccc2O[C@H]1CN(C)C(=O)Nc1ccc2c(c1)OCO2	-1.8
67	C[C@@H]1CCCCO[C@@H](CN(C)C)[C@@H](C)CN([C@H](C)CO)C(=O)c2cc(NS(C)(=O)=O)ccc2O1	-2.2
68	C[C@@H]1CN([C@@H](C)CO)C(=O)c2cc(NC(=O)CCCN(C)C)ccc2O[C@H]1CN(C)C(=O)Nc1cccc2ccccc12	2.4
69	Cc1noc(C)c1NC(=O)Nc1ccc2c(c1)C(=O)N([C@H](C)CO)C[C@@H](C)[C@H](CN(C)C)O2	3.4
70	C[C@@H]1CN([C@H](C)CO)C(=O)c2cc(NC(=O)CCN3CCOCC3)ccc2O[C@H]1CN(C)Cc1ccc(C(F)(F)F)cc1	3.4
71	C[C@@H]1CCCCO[C@@H](CN(C)C)[C@@H](C)CN([C@@H](C)CO)C(=O)c2cc(NC(=O)Nc3cccc4ccccc34)ccc2O1	-0.2
72	C[C@@H]1CCCCO[C@H](CN(C)S(=O)(=O)c2ccccc2)[C@@H](C)CN([C@H](C)CO)C(=O)c2cc(NC(=O)CCCN(C)C)ccc2O1	9.4
73	C[C@@H]1CN([C@@H](C)CO)C(=O)c2cc(NC(=O)NC3CCCCC3)ccc2O[C@@H]1CN(C)C(=O)NC1CCCCC1	-3.2
74	Cc1noc(C)c1S(=O)(=O)Nc1cccc2c1O[C@H](CN(C)C(=O)Nc1ccc(C(F)(F)F)cc1)[C@H](C)CN([C@H](C)CO)C2=O	-1.4

2 of these compounds in a different format.
65) C[C@H](CO)N1C[C@H](C)[C@@H](CN(C)S(=O)(=O)c2ccccc2)Oc2ccc(NC(=O)Cn3cnnn3)cc2CC1=O
  Ran FRET: -2.3

70) C[C@@H]1CN([C@H](C)CO)C(=O)c2cc(NC(=O)CCN3CCOCC3)ccc2O[C@H]1CN(C)Cc1ccc(C(F)(F)F)cc1
  Ran FRET: 3.4

Sorted by the number under Ran FRET (ascending): some entries from above
#	structure	Ran FRET
66	C[C@H]1CN([C@@H](C)CO)C(=O)Cc2cc(NC(=O)Cc3ccccc3)ccc2O[C@H]1CN(C)C(=O)Nc1ccc2c(c1)OCO2	-1.8
74	Cc1noc(C)c1S(=O)(=O)Nc1cccc2c1O[C@H](CN(C)C(=O)Nc1ccc(C(F)(F)F)cc1)[C@H](C)CN([C@H](C)CO)C2=O	-1.4
71	C[C@@H]1CCCCO[C@@H](CN(C)C)[C@@H](C)CN([C@@H](C)CO)C(=O)c2cc(NC(=O)Nc3cccc4ccccc34)ccc2O1	-0.2
63	CNC[C@H]1Oc2c(NC(=O)Nc3cccc4ccccc34)cccc2C(=O)N([C@H](C)CO)C[C@H]1C	0.4
69	Cc1noc(C)c1NC(=O)Nc1ccc2c(c1)C(=O)N([C@H](C)CO)C[C@@H](C)[C@H](CN(C)C)O2	3.4
